Screening results as filed in PubChem.
Autofluor counter = counter-screen for toxin protease inhibitors: compound fluorescence | compound autofluorescence counterscreen, microsphere flow cytometry; hits give high values | fluorescence intensity (test concentration not listed) | 3.1% of 360,000 active | AID 624483;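 active = at least 3 SD above the mean of all compounds, about 16000 in these data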;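 also: 100 nL of 1 mM stock went into each well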
Mtb hypoxia inh = reduces hypoxia-regulated biosensor signal in M. tuberculosis. M. tuberculosis hypoxia-regulated fluorescent reporter, fluorescence. fluorescence inhibition, % (concentration not given with the values). 0.1% of 300,000 active. AID 1159583;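 active = 35 to 45% if threefold the growth effect, above 45% if 1.5-fold the growth effect; inactive = the rest, general growth blockers included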;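 also: wells of about 50 µL received 100 nL stock; 0% = vehicle wells and 100% = reference inhibitor wells; whole bacteria with a GFP reporter of the hypoxia response; strong numbers were not always called active; many hits fall short of the cut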
Sa ugtP lethal = compounds lethal to S. aureus RN4220 ugtP deletion mutant; OD600 growth, 16 h; some inactives read as strong as hits; growth inhibition, % (test concentration not listed); 0.54% of 330,000 active; AID 1259309;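 active = z-score under -3 and OD600 up to 0.15 on both plates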;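 also: plate controls were untreated wells for no effect and antibiotic for full effect; wells of about 80 µL received 100 nL stock; the first replicate is given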
PrP 5UTR inh = inhibition of PrP 5' UTR reporter expression; cell-based PrP 5' UTR mRNA reporter, plate reader; inhibition, % (no concentration beside the values); 0.35% of 340,000 active;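 active = every replicate at 50% or more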;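 also: 0 = median of the neutral control wells; tested in H4 reporter cells; numbers are from one replicate; inactives centre near -14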
RN4220 kill = S. aureus RN4220 growth inhibition; OD600, 16 h; inhibition, % (test concentration not listed); 0.33% of 330,000 active; AID 1259311;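 active = z-score of -3 or lower and OD600 up to 0.18 on both plates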;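 also: plate controls were untreated cells for no effect and reference antibiotic for full effect; stock transfer was 100 nL into about 80 µL; one replicate is shown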
BJeLR viability = kills HRASV12-expressing BJeLR cells; BJeLR (HRASV12) viability, CellTiter-Glo ATP luminescence, 48 h; reference of the scale not given here; inhibition, % (no concentration beside the values); 0.17% of 300,000 active; AID 1554;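 active = replicate mean above 50%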;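 also: 50 nL library stock added to about 25 µL; numbers are from one replicate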
Mtb hypoxia inh growth = recorded beside Mtb hypoxia inh, whose call it bears; growth inhibition, %; measured here: M. tuberculosis growth (absorbance);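 0% = vehicle and 100% = reference antibiotic; read after six days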
Starred values were filed as active, the others as inactive; / = no result given; & = joins results of further samples. This is a random part of the collection; any-hit rate near 4%.

SMILES | Autofluor counter | Mtb hypoxia inh | Mtb hypoxia inh growth | Sa ugtP lethal | PrP 5UTR inh | RN4220 kill | BJeLR viability
CCN(CC)S(=O)(=O)c1ccc2oc(C(=O)NCC3COc4ccccc4O3)c(C)c2c1 (stereo not drawn) | 4397 | 4 | 12 | -16 | -24 | 39 | -9
Cc1nnc2ccc(-c3cccc(NS(C)(=O)=O)c3)nn12 | 1931 | 20 | 16 | 11 | -13 | 3.8 | -5
COc1ccc(NC(=O)C2CC(c3c(F)cccc3Cl)=NO2)cc1OC (stereo not drawn) | 3847 | -3 | 5 | -1 | -38 | 3.3 | 6
Cc1cc(C)nc(NS(=O)(=O)c2ccc(NC(=O)CCN3C(=O)c4ccccc4C3=O)cc2)n1 | 16582* | 8 | 11 | 1 | -4 | -2.7 | 0
Cc1ccc(OCC(=O)NNC(=O)CCc2ccccc2)cc1 | 7920 | 16 | 0 | 5 | / | 0.0 | -6
CCc1nc2ccccc2[nH]1 | 5656 | 10 | 15 | 2 | -28 | 3.4 | -5
COc1ccc(-n2c(=O)[nH]cc(C(=O)Nc3ccc4c(c3)OCCO4)c2=O)cc1 | 10112 | 9 | 9 | -3 | 13 | 1.4 | -5
CC1=C(C)C(=O)N(c2ccccn2)C1=O | 4304 | / | / | -5 | -2 | 4.0 | -9
Cc1cc([N+](=O)[O-])ccc1NC(=O)c1ccc(NC(=O)C(C)C)cc1 | 2438 | 5 | 11 | 5 | 3 | 6.5 | 4
CC(C)=N/N=C(\c1cccc([N+](=O)[O-])c1)C12CN3CN(CN(C3)C1)C2 | 2550 | / | / | / | -8 | / | -3
Cc1ccc(C(=O)Nc2ccc(-n3ccnc3P(=O)(O)c3ccccc3)cc2)cc1 | 2210 | / | / | 6 | -4 | 4.9 | 12
Cc1cc(-c2nnc(-c3cc4ccccc4oc3=O)o2)c(C)n1-c1ccccc1 | 9113 | -2 | -2 | -2 | -24 | 5.8 | 5
CCOC(=O)Nc1ccc2c(CN3CCN(S(=O)(=O)c4ccc(C(C)C)cc4)CC3)cc(=O)oc2c1 | 3959 | 3 | 1 | -4 | -12 | 0.3 | /
Cc1c(-c2ccc(Br)cc2)[n+](=O)c2c(n1[O-])CCCC2 | 4275 | -2 | 12 | -1 | -39 | 1.0 | -6
COc1ccc(NC(=O)CC(C)=NNC(=O)C2CCCCC2)c([N+](=O)[O-])c1 | / | -4 | 11 | 10 | / | 0.8 | /
COc1ccc(C(=O)NC(C(=O)NCC2CCCO2)C(C)C)cc1 (stereo not drawn) | 4518 | 13 | 8 | 9 | -15 | 7.1 | 35
Cc1ccc(SC(C)C(=O)Nc2ccccc2C(=O)N2CCOCC2)cc1 (stereo not drawn) | 3256 | 5 | 6 | 0 | -4 | 1.4 | -4
O=S(=O)(c1cccs1)N1CCC2(CC1)OCCO2 | 5533 | -1 | -18 | 2 | 0 | 1.6 | -2
COc1ccc(S(=O)(=O)Nc2ccc(S(=O)(=O)N3CCOCC3)cc2)cc1 | 2947 | 1 | 6 | 11 | -5 | 6.1 | 3
CC(C)c1ccc(N(CC(=O)NCC2CCCO2)C(=O)Cn2nnc(-c3cccs3)n2)cc1 (stereo not drawn) | 4326 | 10 | 4 | 11 | -24 | 3.9 | -4
COc1ccc(-c2csc(NC(=O)c3ccc(N4C(=O)CCC4=O)cc3)n2)cc1 | 4294 | 6 | -2 | -9 | -33 | 0.2 | -1
COC(=O)C1CCN(c2cc(=O)n(C3CCCCC3)c(=O)[nH]2)CC1 | 3233 | 7 | 4 | 0 | -22 | 5.0 | -3
COC(=O)CCn1c(C)cc(C(=O)COc2ccccc2C(N)=O)c1C | 4260 | / | / | 7 | -22 | 3.6 | 28
CCC1CCCCN1CCCNC(=O)c1ccc(/C=C2/Sc3ccccc3NC2=O)cc1 (stereo not drawn) | 5141 | -2 | 5 | 18 | 8 | 5.1 | -9
CCN(CC)S(=O)(=O)c1ccc(N2CCN(c3ccccc3OC)CC2)c(N)c1 | 3873 | -8 | -23 | 0 | -13 | -1.5 | -14
COc1ccc(-c2cc(C(=O)O)c(C)o2)cc1OC | 20243* | 12 | 9 | -2 | -54 | -2.3 | 6
COC(=O)/C=C/C(=O)N1CCN(c2ccccc2)CC1 | 8958 | 25 | 23 | 2 | -6 | 6.0 | 5
CCN(CC(=O)Nc1c(C(=O)OC)[nH]c2ccccc12)c1ccc2c(c1)OCO2 | 8639 | 7 | 10 | -13 | -26 | 2.2 | -7
COC(=O)c1cc2cc(OC)ccc2n1C | 3753 | 0 | 3 | 12 | -1 | 10 | /
CC(C)(C)C1C=C(C(=O)N2CCN(Cc3ccccc3)CC2)OC(OCc2ccc(CO)cc2)C1 (stereo not drawn) | / | 3&6 | -6&4 | 3&-11 | / | 4.1&8.1 | /
CCCCC(CC)CNC(=O)c1cc2ccccc2c(=O)o1 (stereo not drawn) | 2117 | -3 | 8 | -25 | -5 | -4.7 | -10
Cc1cc(C(F)(F)F)nn1CC(=O)N(C)C1CCCCC1 | 2959 | 6 | -6 | -8 | -23 | 0.9 | -8
COc1ccc(OCC(=O)N2CCN(c3cccc(Cl)c3)CC2)cc1 | 4505 | 6 | 1 | 4 | -7 | 2.1 | -6
O=C(O)CCCCCCCCCCCNC(=O)NC12CC3CC(CC(C3)C1)C2 | 4790 | 6 | 7 | -27 | -9 | 2.9 | /
CN(C)CCCN(C(=O)c1sc2ccccc2c1Cl)c1nc2c(F)cccc2s1 | 2553 | -1 | -5 | -12 | -7 | -3.0 | 2
CCC(CC)C(=O)Nc1cccc(C(=O)Nc2nccs2)c1 | 9491 | 13 | 6 | -21 | -11 | 5.3 | -1
CCOc1ccccc1NC(=O)c1sc2nc(C)nc(N3CCOCC3)c2c1C | 5111 | 9 | 6 | 6 | -22 | 2.3 | -4
COc1ccc(-n2cc([N+](=O)[O-])c(=O)c3ccc(Cl)cc32)cc1 | 3039 | 3 | -7 | 8 | 1 | 4.9 | -2
O=C(Cn1c(=O)n2ncnc2c2c3c(sc21)CCCC3)c1ccccc1 | 9729 | 6 | 7 | -40 | -9 | 5.8 | -7
CC(=O)N1CCN(C(=S)NC(=O)C23CC4CC(CC(C4)C2)C3)CC1 | 3356 | -5 | -3 | -2 | -87 | 1.4 | 10
Cc1cc(-c2ccccc2)nc(N(C)NC(=O)c2ccc(Cl)cc2)c1S(C)(=O)=O | 2551 | / | / | -1 | -9 | -0.7 | 0
Cc1ccc(S(=O)(=O)c2ccc(Cl)cc2)cc1S(=O)(=O)NC(C(=O)O)C(C)C (stereo not drawn) | 1967 | 6 | 4 | 10 | -15 | 3.1 | 4
CCN1C(=S)N[C@@H](c2ccccc2)C(C(=O)OC)=C1C | 3685 | / | / | / | -15 | / | -2
O=C(CN1C(=O)NC2(CCCCC2)C1=O)Nc1ccc2c(c1)CCC2 | 4525 | 19 | 1 | 2 | -26 | 3.3 | 4
CCN1C(=O)C(=Cc2cc(C)n(C)c2C)SC1=Nc1ccc(OC)cc1 | / | -2 | -3 | -4 | / | 0.7 | /
CCOC(=O)c1c(C)[nH]c(C)c1C(=O)COC(=O)c1cccnc1Cl | 3653 | 8 | 10 | 4 | 2 | 4.4 | /
Cc1ccc(C)c(N2CC(C(=O)Nc3nccs3)CC2=O)c1 (stereo not drawn) | 4833 | -1 | -3 | 10 | -11 | 3.6 | -13
NC(=O)c1cc(-c2csc(-c3cccnc3)n2)ccc1O | 3898 | 1 | 5 | 12 | -19 | 2.7 | 4
O=[N+]([O-])c1ccc(NN=Cc2ccc3c(c2)OCO3)nc1 | 4225 | 9 | 6 | 2 | -67 | -0.3 | /
O=C(COC(=O)c1cccc(C(=O)OCC(=O)c2ccc(Br)cc2)n1)c1ccc(Br)cc1 | 3445 | / | / | 6 | -9 | 1.6 | -3
CN(C)c1ccc(NS(=O)(=O)c2cccc(Cl)c2)cc1 | 7184 | 9 | 12 | 3 | 5 | 4.9 | 18
Cc1ccsc1/C=N/N=C1\C(=O)Nc2ccccc21 | 2570 | / | / | / | -61 | / | -10
Cc1cc(C(=O)NN=Cc2ccc3c(c2)OCO3)c(C)o1 | / | 12 | 9 | 8 | / | 4.2 | /
Cc1ccn2c(Nc3ccccc3C)c(-c3ccncc3)nc2c1 | 7436 | 4 | -4 | -3 | -16 | 1.8 | -1
COc1cc2c(cc1OC)C(c1ccccc1)NC(C)(C)C2 (stereo not drawn) | 4006 | 7 | -1 | 2 | -4 | 2.8 | -1
O=C(c1sc2ccccc2c1Cl)N1CCN(c2ccccn2)CC1 | 5573 | 17 | 1 | 11 | 5 | 4.8 | -11
CC(Oc1ccc2c3c(c(=O)oc2c1)CCC3)C(=O)NCCN1CCOCC1 (stereo not drawn) | 5832 | 8 | 1 | 1 | -30 | 0.8 | -5
Cc1ccc(NC(=O)COC(=O)c2ccc(NC(=O)CC#N)cc2)cc1S(=O)(=O)N1CCOCC1 | 3014 | -12 | 7 | -8 | -18 | -1.6 | /
Cc1cc2c(cc1C)NC(c1ccccn1)C1=C(CC(C)(C)CC1=O)N2 (stereo not drawn) | 2473 | 5 | 10 | 5 | 5 | 0.4 | -3
O=C(Nc1ccc(Cc2ccncc2)cc1)C1CCC(N2C(=O)C3C4C=CC(C4)C3C2=O)CC1 (stereo not drawn) | 8175 | 7 | 5 | 0 | -12 | 5.7 | 12

Single records (already shown). Order of values: Autofluor counter | Mtb hypoxia inh | Mtb hypoxia inh growth | Sa ugtP lethal | PrP 5UTR inh | RN4220 kill | BJeLR viability
Record of CN(C)c1ccc(NS(=O)(=O)c2cccc(Cl)c2)cc1 = 7184 | 9 | 12 | 3 | 5 | 4.9 | 18
Record of Cc1cc(C(=O)NN=Cc2ccc3c(c2)OCO3)c(C)o1 = / | 12 | 9 | 8 | / | 4.2 | /
Record of Cc1ccn2c(Nc3ccccc3C)c(-c3ccncc3)nc2c1 = 7436 | 4 | -4 | -3 | -16 | 1.8 | -1

Ordered by SMILES length (descending): part of the list above.
SMILES | Autofluor counter | Mtb hypoxia inh | Mtb hypoxia inh growth | Sa ugtP lethal | PrP 5UTR inh | RN4220 kill | BJeLR viability
CC(Oc1ccc2c3c(c(=O)oc2c1)CCC3)C(=O)NCCN1CCOCC1 (stereo not drawn) | 5832 | 8 | 1 | 1 | -30 | 0.8 | -5
O=[N+]([O-])c1ccc(NN=Cc2ccc3c(c2)OCO3)nc1 | 4225 | 9 | 6 | 2 | -67 | -0.3 | /
COc1cc2c(cc1OC)C(c1ccccc1)NC(C)(C)C2 (stereo not drawn) | 4006 | 7 | -1 | 2 | -4 | 2.8 | -1

Next part.
SMILES | Autofluor counter | Mtb hypoxia inh | Mtb hypoxia inh growth | Sa ugtP lethal | PrP 5UTR inh | RN4220 kill | BJeLR viability
COc1ccc(COc2ccccc2C(=O)NCc2ccccc2)cc1F | 2416 | -14 | -4 | 0 | -7 | 0.1 | 3
COc1ccccc1-c1c(C#N)c(N)nc2c1CCc1ccccc1-2 | 2576 | 17 | 2 | 4 | -5 | 7.1 | 6
COC(=O)c1cnn(-c2ccccc2)c1N | 4383 | 11 | 2 | -1 | -19 | 4.0 | -3
Nc1cccc(-c2nc3ccccc3s2)c1 | 3239 | / | / | -2 | -128 | 5.8 | -1
CC(C)C(CSc1ccccc1)N1CCN(Cc2ccccc2)CCC1=O (stereo not drawn) | / | 1 | 5 | -7 | / | 1.2 | /
Cc1ccc(OCC(=O)NCC2CCCO2)c(C)c1 (stereo not drawn) | 4467 | 1 | -6 | 7 | -13 | 10 | -18
Cc1ccc(Cn2ncc3c(NCCN(C)C)ncnc32)cc1 | 3782 | 15 | 6 | -4 | -11 | 1.3 | -1
COc1cccc2c1N=C1CCCC3CN(C(C)=O)CCC123 (stereo not drawn) | 3513 | 19 | 7 | -3 | -18 | 3.6 | /
Cc1nc(NC(=S)NC(=O)c2ccccc2)sc1C(=O)N(C)C | 21936* | 4 | 5 | 19 | -24 | 4.9 | -5
COC(=O)c1ccc(NC(=S)N2CCN(CCO)CC2)cc1 | 4097 | 3 | 1 | 9 | -15 | 4.3 | -7
Fc1ccccc1C=Nn1c(-c2cccnc2)n[nH]c1=S | / | 2 | 6 | 5 | / | 4.2 | /
CC(C)n1ncc2c(C(=O)Nc3ccc(S(N)(=O)=O)cc3)cc(C3CC3)nc21 | 4578 | 6 | -2 | 6 | -19 | 1.6 | /
Cc1ccc(CCNC(=O)C2CCN(S(=O)(=O)c3ccc4c(c3)CCC(=O)N4)CC2)cc1 | 5922 | / | / | 3 | 3 | 2.9 | 6
COc1ccccc1CCNC(=O)C1CCN(c2nnc(C)c3c(C)n(-c4ccc(C)cc4)nc23)CC1 | 13586 | 3 | 33 | -4 | -3 | -6.0 | 2
C(=NN1CCN(Cc2ccccc2)CC1)c1cccs1 | / | 7 | 6 | 7 | / | 3.2 | /
